Sfp inh: Sfp phosphopantetheinyl transferase inhibition; Q9F4F7; Biochemical Sfp PPTase activity, qHTS; Potency, µM, for inactives: max response, negative = inhibition, most hits filed as inhibitors; 3.5% of 310,000 active; AID 1490; active means well fitted inhibition curve with a large enough effect; inconclusive means small, poorly fitted or top-dose-only effect, or another doubt; inactive means no such curve, though single readings can be large or run the other way;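 further: the enzyme is Sfp with the accession as filed and its product quenches rhodamine fluorescence; potency means the concentration at half of the fitted maximal effect; 0% = enzyme reaction without inhibitor and -100% = no enzyme wells; top concentration of the series not given in the record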
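Buffer: 50 mM Hepes-Na pH 7.6, 10 mM MgCl2, 0.01% Nonidet P-40, 0.01% BSA. Enzyme 15 nM, pre-exposed to compound 15 min; substrates then added and fluorescence change tracked over 30 min.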
TRPML1 agonist: human mucolipin-1 channel agonism; TRPML1-expressing cells, Ca2+ dye fluorescence, FDSS; host cell line not named in the record; reference of the full effect not given here; activation, % (test concentration not listed); 0.12% of 410,000 active; AID 624414; in the data active = activation above about 50%; inconclusive = about 30% to 50%; inactive = below about 30%; further: 0% is about no effect; the text of the record puts the active cut at 80%
Target sequence (Q9GZU1 whole entry, looked up): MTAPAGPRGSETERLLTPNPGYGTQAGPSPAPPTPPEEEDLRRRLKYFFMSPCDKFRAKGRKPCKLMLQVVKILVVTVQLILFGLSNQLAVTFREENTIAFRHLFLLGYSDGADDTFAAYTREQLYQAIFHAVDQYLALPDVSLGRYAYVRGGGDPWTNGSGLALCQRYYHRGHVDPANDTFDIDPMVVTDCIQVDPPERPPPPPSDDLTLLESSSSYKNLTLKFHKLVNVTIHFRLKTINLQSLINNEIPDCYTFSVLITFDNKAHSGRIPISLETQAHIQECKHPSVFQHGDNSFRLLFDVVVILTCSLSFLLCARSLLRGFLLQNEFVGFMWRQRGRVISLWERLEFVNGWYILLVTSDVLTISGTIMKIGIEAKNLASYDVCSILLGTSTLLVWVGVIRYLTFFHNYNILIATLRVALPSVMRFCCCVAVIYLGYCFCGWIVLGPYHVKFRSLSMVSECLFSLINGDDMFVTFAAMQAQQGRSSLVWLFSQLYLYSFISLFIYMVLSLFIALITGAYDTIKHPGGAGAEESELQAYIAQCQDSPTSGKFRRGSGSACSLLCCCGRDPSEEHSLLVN
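TRPML1-DL cells, Tet-induced overnight (~16 h, 37 degrees C), loaded 45-90 min at room temperature with Ca8 no-wash calcium dye plus quencher. FDSS fluorescence: 10 s baseline, compound pin-transfer, 110 s agonist read, then EC80 54-4 (4uM final) and 110 s antagonist read.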
PINK1 expr mod: PINK1 expression modulation | 0.2% of 410,000 active | AID 624263 | Potency, µM (series often up to 76.6 µM), inactives show top-dose activation (PINK1 increase), hits mostly activators | PINK1 immunofluorescence, high-content cytometry, 24 h; active = well fitted activation curve with a large enough effect; inconclusive = small, poorly fitted or top-dose-only effect; inactive = flat fitted curve, though single readings scatter; cell line not stated here;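 further: potency means the concentration at half of the fitted maximal effect; % of control where 0% means no effect; nearly all actives have a fitted effect of over 65% in size; a mitochondrial uncoupler was the plate control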
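Decision-based qHTS: stable cells, 24 h exposure to five compound concentrations, CCCP as control. Fixed cells stained for PINK1 plus nuclear, mitochondrial and cell markers, cytometer read.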
TRPV1 potentiator: human TRPV1 potentiation | Q8NER1 | TRPV1-expressing cells, Fluo-8 calcium influx, capsaicin EC20 potentiation; host cell line not named in the record; control for the full effect not named in the record | potentiation, % at 8.33 µM | 0.02% of 320,000 active | AID 540277; active means potentiation above 80%; inconclusive means 30% to 80%; inactive means below 30%; further: 0% is about no effect
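Cells expressing TRPV1 were dye-loaded with Fluo-8 and read kinetically: 10 s baseline, 3 min after compound (agonist portion), then 2 min after EC20 capsaicin (allosteric enhancer portion). Calcium-bound dye fluorescence at 480/520 nm.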
TRPML1 inh: human mucolipin-1 channel inhibition; Q9GZU1; TRPML1-inducible cells, Ca2+ dye fluorescence, FDSS; active compounds read low; inhibition of EC80 agonist-evoked calcium signal; activity change, negative = inhibition, % (test concentration not listed); 0.02% of 390,000 active; in the data active means activity change below about -50%; inconclusive means about -30% to -50%; inactive means above about -30%;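 further: stimulus is agonist 54-4 at its EC80 concentration; on the % scale 0 is the no-effect control and ±100 the full control effect; compound concentration not given in the record; the text of the record puts the active cut at -80%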
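Tet-induced TRPML1-DL cells loaded with Ca8 no-wash calcium dye were read kinetically on FDSS. Compound addition was followed by EC80 agonist 54-4 (4 uM final); inhibition was read over 110 s.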
Menin MLL FP FL: inhibitors of human menin-MLL interaction, wild-type MLL peptide. Fluorescence polarization, fluorescein-MLL peptide displacement from menin. 290,000 tested, under 10 active. FP activity change, % at 61.4 µM; inconclusive = falling polarisation curve, or a change in total fluorescence; inactive = total fluorescence flat and polarisation flat or rising; no compound was filed as active; the % refers to the polarisation; negative = inhibition;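 further: % of control where 0% means no effect; inhibitors lower the polarisation; unlabelled MLL peptide was the positive control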
ClpP mod: qHTS Assay for Activators of ClpP; ATP-dependent Clp protease proteolytic subunit (Bacillus subtilis (strain 168)), P80244; 1.9% of 340,000 active; Potency, µM (top dose mostly 57.5 µM), inactives show top-dose activity change, negative = active; purified B. subtilis ClpP, FRET peptide cleavage, 20 min; active = well fitted falling curve with a large enough effect; inconclusive = small, poorly fitted or top-dose-only effect; inactive = no such curve, though single readings can be large or run the other way; further: potency means the concentration at half of the fitted maximal effect; the source files actives as falling curves though it sought activators and does not explain the sign; nearly all actives have a fitted effect of over 65% in size; many hits overshoot -100%
Target sequence (P80244 whole entry, looked up): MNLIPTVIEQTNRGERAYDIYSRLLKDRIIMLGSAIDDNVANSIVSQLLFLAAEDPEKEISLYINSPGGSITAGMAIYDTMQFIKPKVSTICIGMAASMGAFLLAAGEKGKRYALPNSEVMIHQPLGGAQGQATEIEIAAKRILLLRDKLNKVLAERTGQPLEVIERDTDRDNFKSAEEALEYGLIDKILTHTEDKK
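Purified B. subtilis ClpP, 10 microg/mL final in Tris/HCl pH8 with KCl, BSA, glycerol and Tween-20, cleaved an Abz/nitrotyrosine-quenched decapeptide. Fluorescence (ex 320, em 430) was read at 0 and 20 min at room temperature. Delta was normalized to 5.8 microM ADEP and DMSO/no-enzyme controls.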
Numbers without * were called inactive; u = inconclusive; x = no result given; & = joins results of further samples; [ ] = another dose, or the depositor's remark.

SMILES	Sfp inh	TRPML1 agonist	PINK1 expr mod	TRPV1 potentiator	TRPML1 inh	Menin MLL FP FL	ClpP mod
COc1cccc(CC(=O)Nc2ccccc2C(=O)N2CCOCC2)c1	14%	0.4	0.6%	-6	-12	0.6	-1.0%
COc1cc(NC(=S)NCCCN(C)C)c(OC)cc1NC(=O)c1ccco1	3%	0.5	1.5%	8	22	-1.9	0.1%
CCCCN1CCNC[C@@H]1Cc1ccc(O)cc1	x	-0.3	-0.8%	u	1	x	-4.5%
COc1ccc(/C=C2/C(=O)N(c3c(F)c(F)c(F)c(F)c3F)N=C2C)cc1	-27%	x	2.1%	-11	x	1.2	-0.1%
O=S(=O)(Nc1ccc(-n2cnnn2)cc1)c1ccc(F)c(F)c1F	23%	0.5	1.1%	5	12	-1.0	-3.1%
O=C1C=C(c2ccccc2)CC(c2ccc(F)cc2)C1 (configuration not stated)	x	2.5	-0.2%	x	24	x	2.0%
Cc1c(C)n(C(=O)CSc2nc3ccccc3[nH]2)c2ccccc12	-1%	-0.1	-1.1%	6	6	3.2	-8.0%
O=C(O)C1C2CCC(O2)C1C(=O)Nc1cccc(Cl)c1 (configuration not stated)	8%	0.5	5.4%	29	7	-7.0	x
C=CC[C@@H](CC(=O)OC(C)(C)C)C(=O)OC[C@H]1CCCN1C(=O)[C@@H](CC=C)CC(=O)N[C@H](CO)Cc1ccccc1	x	-1.0	-0.9%	x	2	x	2.0%
CCOc1cc(C(=O)NC(C)COC)cc(OCC)c1OCC (configuration not stated)	6%	-0.3	1.2%	6	-10	0.9	-4.9%
Cc1nn(CC(=O)NC(C)c2ccccc2)c(C)c1[N+](=O)[O-] (configuration not stated)	15%	-0.5	6.5%	1	4	0.3	1.7%
COc1cccc(CNC(=O)c2ccc(NC(=O)C3=CSCCO3)cc2)c1	8%	0.9	2.2%	-3	-8	x	-7.4%
O=C(Cc1ccc(Cl)cc1)NC1CCCN(Cc2ccccc2F)C1 (configuration not stated)	5%	1.9	-0.8%	-8	3	-1.2	-1.1%
CC1CCN(S(=O)(=O)c2cccc(C(=O)NC3CCCCC3)c2)CC1	13%	-1.7	3.4%	-2	-3	-1.3	-19%
CCOC(=O)C1=C(C)NC(=O)NC1c1ccc(N(C)C)cc1 (configuration not stated)	13%	-0.4	2.2%	4	-5	6.4	-3.5%
CCc1cccc(NS(=O)(=O)c2c(C)[nH]c(=O)[nH]c2=O)c1	12%	0.2&-0.2	-2.5%&-1.0%	4	-16&-9	-6.3	0.8%&0.7%
COc1ccc(OC)c(NC(=O)c2oc3c(c2C)-c2nn(Cc4ccc(Cl)cc4)cc2CC3)c1	x	-0.2	4.0%	x	26	x	192%
COC(=O)N1CCC2(CCN(Cc3nccs3)CC2)CC1	21%	x	-1.0%	x	x	0.1	x
COc1cccc(N2C(=O)[C@H]3C(C(=O)c4cnccn4)=NN[C@H]3C2=O)c1	79µM*	0.4	-0.2%	11	1	u	x
COc1cccc(NC(=O)CC2(CC(=O)O)CCCC2)c1	8%	-0.7	u	-16	4	2.0	2.0%
O=C(O)CCCC(=O)NCc1c(Cl)cccc1Sc1ccc(Cl)cc1	79µM*	0.0	-0.9%	3	4	1.6	x
CC(C)N(CC#CCC(O)(c1ccccc1)c1ccccc1)C(C)C	-2%	1.4	1.3%	6	4	0.9	-2.8%
CCOc1ccc(CCNS(=O)(=O)c2ccc3c(c2)oc(=O)n3C)cc1OCC	4%	3.2	2.1%	11	-12	x	-1.7%
O=C(C[n+]1cc(Br)cc2ccccc21)c1ccc(Br)cc1	-5%	1.6&9.9	u	6	7	13	-4.5%
CSCCC(NC(=O)c1ccccc1Br)C(=O)NCC(C)(C)N1CCOCC1 (configuration not stated)	x	-0.7	-1.2%	3	-17	x	-2.8%
(next part)
SMILES	Sfp inh	TRPML1 agonist	PINK1 expr mod	TRPV1 potentiator	TRPML1 inh	Menin MLL FP FL	ClpP mod
CC1(C)Cc2c(c(-c3ccco3)nc3sc4c(NCC5CCCO5)ncnc4c23)CO1 (configuration not stated)	20µM*	1.6	6.7%	0	1	6.8	16µM*
CCNc1nc(NCC)n2c(SC(C(=O)Nc3cc(C)ccc3OC)c3ccccc3)nnc2n1 (configuration not stated)	50µM*	3.1	-4.6%	2	19	7.7	-2.4%
COc1ccc(C(=O)COC(=O)c2cccnc2Cl)c(OC)c1	7%	-0.6	0.8%	1	13	7.4	x
CCN(CC)C(=O)c1c(-c2ccccc2)c(-c2ccccc2)nn(CC)c1=O	x	0.9	-1.1%	x	u	x	-0.9%
O=C(NC1CCCCC1)c1ccc(S(=O)(=O)N2CCCC2)cc1	-4%	0.3	1.1%[38.3 µM]	8	17	1.8	-0.8%
Cn1ccs/c1=N\S(=O)(=O)c1ccc(C(C)(C)C)cc1	8%	1.2	0.8%	20	-5	4.6	3.3%
Cc1ccc(-c2[nH]ncc2/C=N/n2c(COc3ccccc3C)nc3ccccc3c2=O)cc1	26%	0.2	-3.3%	16	6	5.4	1.7%
Cn1c(=O)c2c(ncn2CC(=O)Nc2ccccc2Sc2ccccc2)n(C)c1=O	12%	0.1	x	1	3	5.9	1.9%
Cc1c(NC(=O)C2CCCCC2)cc(C(=O)N2CCOCC2)cc1[N+](=O)[O-]	9%	-0.7	2.9%	-10	12	-0.1	-0.2%
COc1cccc2c1OCC/C2=N\NC(=O)COc1ccc(C)cc1	7%	-0.2	13%	6	4	-2.4	2.5%
COCCNC(=O)COc1ccc(Oc2ccccc2)cc1	15%	3.4	-0.3%	-15	12	-0.6	-1.2%
CCN1CCCC(NC(=O)c2cc([N+](=O)[O-])ccc2OC)C1 (configuration not stated)	7%	0.1	-1.0%	2	-8	2.0	-9.1%
Cc1cccc2[nH]c3c(=O)n(CCN4CCNCC4)cnc3c12	8%	0.6	-0.2%	1	1	3.0	u
Cc1ccc(C(=O)N2CCN(c3ncccn3)CC2)cc1	1%	0.3	-0.2%	9	4	-5.3	-6.6%
O=C(CSc1ccc2ccccc2c1)Nc1ccc(S(=O)(=O)Nc2nccs2)cc1	-6%	0.0	1.2%	u	-7	6.6	1.0%
CC(=O)c1cc(-c2ccccc2)n(CC(=O)N2CCCC2)c1C	5%	0.0	-1.5%	9	12	-4.1	x
CC(=O)c1c(C)oc2ccc(N(C(C)=O)S(=O)(=O)c3ccc(Cl)c([N+](=O)[O-])c3)cc12	3%	0.6	-3.2%	-5	0	6.3	-2.5%
CC(C)c1ccc(N2C(=O)CS(=O)(=O)C23C(=O)N(Cc2cccc(F)c2)c2ccccc23)cc1 (configuration not stated)	x	0.7	-5.2%	x	-23	x	-0.2%
Cc1ccc(C(c2nnnn2CCc2ccccc2)N2CCC(C)CC2)cc1 (configuration not stated)	0%	5.9	3.9%	8	41	1.7	-0.2%
CC1(C(O)(C#CC[N+]2(C)CCCCC2)c2ccccc2)CCCC1 (configuration not stated)	8%	0.9	-1.0%	8	20	0.0	x
COC(=O)c1ccc(COC(=O)CCNS(=O)(=O)c2ccc(C)c(C)c2)cc1	x	4.7	-0.4%	-3	5	x	x
CC(C)=CC(=O)N1CC[C@@H](N2CCN(c3ccccc3F)CC2)[C@H](O)C1	22%	0.2	0.7%	8	47	3.5	0.3%
OCc1ccccc1CNCc1ccccc1	13%	0.5	-1.3%[38.3 µM]	-6	-3	-6.7	-1.5%
COc1ccc(C(C)=O)cc1COC(=O)Cc1n[nH]c(=O)c2ccccc12	6%	-0.7	u	-2	-4	-3.4	-1.2%
CCCS(=O)(=O)NC(=O)C1(C)CCN(C(=O)c2cc(F)ccc2C)C1 (configuration not stated)	x	-0.5	-0.7%	x	x	x	0.6%
Remaining list, next part.
SMILES	Sfp inh	TRPML1 agonist	PINK1 expr mod	TRPV1 potentiator	TRPML1 inh	Menin MLL FP FL	ClpP mod
Cc1[nH]nc(SCC(=O)NC(C)c2ccccc2)c1[N+](=O)[O-] (configuration not stated)	7%	0.1	-0.1%	-2	14	1.0	1.9%
CCC(C)NS(=O)(=O)c1ccc(NC(=O)c2ccc([N+](=O)[O-])cc2Cl)cc1 (configuration not stated)	1%	0.5	1.3%	-8	13	5.6	-5.3%
CC1CN(C2CCN(C(=O)COc3ccc(Cl)cc3)CC2)CC(C)O1 (configuration not stated)	71µM*	-0.3	-1.5%	24	12	0.9	u
COc1ccc(S(=O)(=O)N(C)C[C@H]2Oc3c(NC(=O)c4ccncc4)cccc3C(=O)N([C@H](C)CO)C[C@@H]2C)cc1	x	-0.6	-1.3%	x	-2	x	-1.7%
COc1cccc(CN(C)C(=O)C(Cc2ccccc2)NC(=O)c2ccccc2)c1OC (configuration not stated)	x	1.1	-1.0%	-18	60	x	x
O=C(OCC(=O)N1CCN(c2ccccc2)CC1)c1ccc2ncsc2c1	u	1.8	-1.7%	7	9	0.9	-7.6%
Clc1ccc(CN2CC[C@H]3C=CCc4cccc(c43)C2)cc1	x	-0.1	25%	-12	-5	x	-1.5%
CN(CC(=O)Nc1ccccc1F)S(=O)(=O)c1ccc2c(c1)c(=O)n(C)c(=O)n2C	x	-0.4	1.1%	x	6	x	-4.5%
COc1ccc(C(=O)NNC(=O)CCC(=O)Nc2cc(C)on2)cc1	9%	-0.2	0.1%	17	-4	6.6	-0.4%
COc1cc(/C=N/NC(=O)c2cc(-c3cccc(Br)c3)nc3ccccc23)cc(OC)c1O	x	0.4	4.3%	x	26	x	0.6%
O=C(N[C@@H](Cc1ccccc1)c1nc2ccccc2[nH]1)c1cc([N+](=O)[O-])ccc1Cl	2%	0.0	-1.1%	-6	-5	8.3	-1.7%
CC(/C=N/NC(=O)c1ccccc1C)=C\c1ccccc1	x	1.6	2.1%	x	5	x	0.5%

Screens as filed in PubChem.
